# RecA splice inh – Mtb RecA intein splicing inhibition; inhibition, %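 (about 9 µM by stock and volumes)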; AID 2221; actives 0.75% (n = 290,000); cell-free RecA intein splicing, fluorescence; P9WHJ3; in the data active = inhibition above about 30%; inconclusive = no clear call, values can overlap the other calls;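 also: 0% = vehicle wells and 100% = reference inhibitor control wells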
# Target sequence (P9WHJ3 whole entry, looked up, canonical isoform): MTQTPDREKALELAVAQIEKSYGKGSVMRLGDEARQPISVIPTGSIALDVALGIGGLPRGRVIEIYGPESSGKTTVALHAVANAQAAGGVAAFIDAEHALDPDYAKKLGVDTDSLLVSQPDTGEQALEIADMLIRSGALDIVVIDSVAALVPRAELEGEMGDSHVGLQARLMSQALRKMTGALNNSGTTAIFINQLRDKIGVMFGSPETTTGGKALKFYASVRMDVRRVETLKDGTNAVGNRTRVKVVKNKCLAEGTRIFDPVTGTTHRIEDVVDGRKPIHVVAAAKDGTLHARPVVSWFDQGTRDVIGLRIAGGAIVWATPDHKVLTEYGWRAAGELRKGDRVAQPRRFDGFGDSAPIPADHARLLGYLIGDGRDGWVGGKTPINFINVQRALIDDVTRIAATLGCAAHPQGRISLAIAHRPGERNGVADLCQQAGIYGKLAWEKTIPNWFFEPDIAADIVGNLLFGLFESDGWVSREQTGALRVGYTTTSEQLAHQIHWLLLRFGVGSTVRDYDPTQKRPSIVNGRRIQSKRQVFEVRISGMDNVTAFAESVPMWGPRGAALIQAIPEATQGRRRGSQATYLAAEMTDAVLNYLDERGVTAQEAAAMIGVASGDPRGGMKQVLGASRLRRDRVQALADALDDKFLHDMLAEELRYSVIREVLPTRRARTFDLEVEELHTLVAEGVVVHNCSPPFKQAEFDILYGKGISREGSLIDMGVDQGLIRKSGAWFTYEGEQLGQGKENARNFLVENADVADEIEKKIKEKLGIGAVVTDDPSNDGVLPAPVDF
# Mtb betalactam – beta-lactam sensitization of Mtb H37Rv. M. tuberculosis H37Rv growth with meropenem, percent inhibition; hits of this screen are not shown here. actives 0.27% (n = 330,000). inhibition, % at 25 µM;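 active = about 74% or more and at least 40 points above the plate without the antibiotic, then above 30% in a dose series; inconclusive = first-round hits that could not be retested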;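 also: growth measured after seven days incubation then overnight dye step; 0% = bacteria only wells and 100% = bacteria with antibiotic; twin plates without the antibiotic show which effects depend on it; some results filed as inactive read as strong as hits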
# YopH PTP inh – YopH (Yersinia) phosphatase inhibition; inhibition, %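 (about 10 µM by stock and volumes)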; actives 0.16% (n = 140,000); fluorescence Ex485/Em525; AID 898;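 active = inhibition of 50% or more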;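 also: controls were vehicle for no effect and minimum signal wells for full effect; inactives centre near -20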
# Mtb growth – M. tuberculosis H37Rv growth inhibitors, H37Rv strain (AID 1626) | M. tuberculosis H37Rv growth inhibition; higher % means a stronger effect | one-dose inhibition, % at 10 µM; IC50 in µM for titrated hits | actives 0.95% (n = 220,000);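 active = confirmed in a dose series; inconclusive = inhibition above 80% but not taken into the dose series; inactive = below 80% or under 30% at every dose of the series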;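 also: bacteria incubated seven days before Alamar blue readout; 0% = bacteria only wells and 100% = bacteria with antibiotic wells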
# Arbovirus inh – blocks arbovirus infection; arbovirus infection cell-based antiviral screen; inhibition, % at 10 µM; actives 0.37% (n = 200,000);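 active = inhibition from about 30%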;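 also: bluetongue infection of BSR cells; cell survival read as ATP light after 72 h; 0% = infected wells without compound and 100% = uninfected wells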
# Arbovirus inh repeat – second read-out of Arbovirus inh, no call of its own (marks repeat the call); inhibition, %; measured here: 10K subset replicate screen; many hits read low in the repeat;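 first of two repeat runs on a subset; 0% = infected and 100% = uninfected wells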
# Starred values were filed as active, the others as inactive; ? = inconclusive; . = not tested or not shown.
SMILES,RecA splice inh,Mtb betalactam,YopH PTP inh,Mtb growth,Arbovirus inh,others
Cn1c(CNC(=O)c2ccccc2)nnc1SCC(=O)N1CCN(c2ccccc2)CC1,-1.8,-4,-10,-7%,0,
O=C(CCSc1ccccc1)Nc1nc2c(s1)COc1ccccc1-2,7.7,-8,-43,77%,11,
Cc1ccc(-c2nnn(C(C)C(=O)N3c4ccccc4CCc4ccccc43)n2)cc1 (configuration not stated),-0.2,-6,-25,12%,-21,
CC(C)(C)OC(=O)N1CCNc2ccccc2C1,-2.9,22,-30,-2%,7,
O=C(CC(NCc1ccccn1)C(=O)O)Nc1ccccc1Cl (configuration not stated),-15,3,.,-10%,20,
CCCc1nnc(NC(=O)CCC(=O)Nc2ccc(Br)cc2)s1,-0.1,6,.,.,.,
Cc1nn(-c2ccccc2)c(Cl)c1/C=C/C(=O)c1ccccc1,14,95,-19,-4%,-5,
CC(Oc1ccc(Br)cc1)C(=O)N1CCc2ccccc21 (configuration not stated),.,2,-8,-12%,4,
O=C(CNCC1CCCO1)Nc1ccccc1N1CCOCC1 (configuration not stated),-1.8,2,1,1%,4,
CC1CCCCN1CCNC(=O)c1ccc2c(c1)N(Cc1cccc(Cl)c1)C(=O)c1ccccc1S2=O (configuration not stated),-0.8,4,.,.,.,
COc1ccc(C(=O)NCCNc2ncc(C(F)(F)F)cc2Cl)cc1[N+](=O)[O-],-0.7,6,.,.,.,
COC(=O)c1cc(OC)c(OC)cc1NCC(=O)Nc1cccc(C(F)(F)F)c1,-1.3,9,-16,6%,-8,
Cc1ccc(S(=O)(=O)n2cnc3ccccc32)cc1,-1.0,-5,-1,1%,0,
CC(C)(C)c1cc(NC(=O)COC(=O)C2CC2)n(-c2ccccc2)n1,.,59,-24,-4%,4,
COc1cccc(CN(C)Cc2nc3cc(C(F)(F)F)ccc3c(=O)[nH]2)c1,1.1,24,.,5%,.,
N#Cc1c(NC(=O)/C=C/c2ccco2)sc2c1CCCC2,0.7,-7,-21,.,-4,
c1ccc(-n2c(-c3cccs3)nc3nc4ccccc4nc32)cc1,-3.6,-2,-25,-5%,-7,
COc1ccccc1C(=O)Nc1c(C(=O)N(CCN(C)C)Cc2ccco2)oc2ccccc12,8.1,83,.,.,.,
COCCNC(=O)c1cccc(OC2CCN(Cc3ccccc3OCCO)CC2)c1,0.3,1,.,.,.,
Cc1nc(SCC(O)CCl)c([N+](=O)[O-])[nH]1 (configuration not stated),3.1,-9,5,-6%,6,

# Overlap with the part before: five entries, then new ones.
SMILES,RecA splice inh,Mtb betalactam,YopH PTP inh,Mtb growth,Arbovirus inh,others
N#Cc1c(NC(=O)/C=C/c2ccco2)sc2c1CCCC2,0.7,-7,-21,.,-4,
c1ccc(-n2c(-c3cccs3)nc3nc4ccccc4nc32)cc1,-3.6,-2,-25,-5%,-7,
COc1ccccc1C(=O)Nc1c(C(=O)N(CCN(C)C)Cc2ccco2)oc2ccccc12,8.1,83,.,.,.,
COCCNC(=O)c1cccc(OC2CCN(Cc3ccccc3OCCO)CC2)c1,0.3,1,.,.,.,
Cc1nc(SCC(O)CCl)c([N+](=O)[O-])[nH]1 (configuration not stated),3.1,-9,5,-6%,6,
Oc1ccc(N2CCN(C(=S)NCCc3ccccc3)CC2)cc1,-6.4,-8,-28,-4%,-15,
CCOC(=O)c1sc(=S)n(-c2ccc(OC)cc2)c1C,1.7,-7,.,11%,.,
COc1ccc(CCNC(=O)CS(=O)Cc2nc(-c3ccccc3Cl)oc2C)cc1OC (configuration not stated),1.6,4,.,.,.,
O=C(NCCCNc1ccc(C(F)(F)F)cc1[N+](=O)[O-])c1cc(F)c(F)cc1Cl,2.4,-4,-42,-3%,4,
COc1ccccc1CNC(=O)CCNS(=O)(=O)c1cccc2nonc12,3.9,-6,.,.,.,
COc1ccccc1CNS(=O)(=O)c1c(C(=O)N2CCCCC2)c(C)n(C)c1C,-0.1,2,.,.,.,
CN(CC(=O)NCCc1ccc(S(N)(=O)=O)cc1)c1ccccc1,.,1,.,-4%,13,
Cc1ccc(C)c(NC(=S)N(Cc2ccco2)C(C)c2cccs2)c1 (configuration not stated),7.7,-4,.,0%,2,
COCCN1C(=O)c2ccccc2C(C(=O)NCc2ccco2)C1c1c[nH]c2ccccc12 (configuration not stated),0.4,5,-48,-7%,10,
CCN(Cc1ccc(C#CCCO)cc1)CC1CCCN(CCc2cccc(F)c2)C1 (configuration not stated),-1.1,3,.,.,.,
Cc1cc(C)cc(NC(=O)c2sc3nc(C)cc(C)c3c2N)c1,-17,2,.,.,.,
CCc1cc2c(=O)n(CC(=O)NCCc3ccc(OC)c(OC)c3)cnc2s1,1.6,-5,.,-4%,-3,
CCCSc1ccc([C@@H]2[C@@H]3C(=O)N(C)C(=O)[C@@H]3[C@]3(C(=O)OC)CCCCN23)cc1OC,2.9,-2,.,.,.,
O=C(NCCCCCCNC(=O)N1CCCCCC1)N1CCCCCC1,-0.3,3,-7,-8%,-13,
S=C(N/N=C/c1ccc2ncccc2c1)Nc1cccnc1,2.9,1,.,4%,-1,
COc1ccc(-n2nc3c(c2NC(=O)c2cc(Br)ccc2Cl)CS(=O)C3)cc1 (configuration not stated),-1.3,-10,-37,9%,7,
CN(C(=O)C1CCC(=O)N(CCc2ccc(Cl)cc2)C1)C1CCOCC1 (configuration not stated),1.2,3,.,.,.,
CCOc1ccccc1NC(=O)C(NCCN(C)C)c1ccccc1 (configuration not stated),0.7,-2,.,-7%,-15,
COCCCn1nnnc1SCC(=O)N1CCN(C(=O)c2ccco2)CC1,1.0,-4,.,-4%,-3,
O=C(NC(=S)N(CC1CCC1)CC1CCCO1)c1cccc([N+](=O)[O-])c1 (configuration not stated),-4.8,22,.,?,-7,

# Of the compounds above, these contain a tert-butyl group:
SMILES,RecA splice inh,Mtb betalactam,YopH PTP inh,Mtb growth,Arbovirus inh,others
CC(C)(C)OC(=O)N1CCNc2ccccc2C1,-2.9,22,-30,-2%,7,
CC(C)(C)c1cc(NC(=O)COC(=O)C2CC2)n(-c2ccccc2)n1,.,59,-24,-4%,4,

# The results go on:
SMILES,RecA splice inh,Mtb betalactam,YopH PTP inh,Mtb growth,Arbovirus inh,others
Cc1ccc(-c2nn(C)c(=O)c3ccccc23)cc1CNC(=O)/C=C/c1ccccc1,3.2,62,-37,-2%,-2,
COc1cc(S(=O)(=O)NCc2ccccc2)ccc1F,1.5,-2,-27,13%,-6,
Cn1c(SCC#N)nnc1-c1ccc2c(c1)OCO2,-0.2,-11,-22,-6%,5,
O=S(=O)(NC1=NCCCCC1)c1ccc(F)cc1,2.1,-5,.,-8%,.,
CCN(CC)S(=O)(=O)c1ccc(OC(C)C)c(NC(=O)C2=COCCO2)c1,-2.3,-2,.,.,.,
Cc1c(N=C/C=C/c2ccccc2)cnn1C,3.9,9,-56,-2%,-6,Arbovirus inh repeat=0
C=CCSC1=NNC(c2ccc(C(C)(C)C)cc2)=NN1,-1.1,-2,.,-3%,.,
O=C(O)C1CCC(=O)N1Cc1ccc(F)cc1 (configuration not stated),1.3,-2,-28,-6%,4,
COc1ccc(CCNC(=O)c2cc3c(=O)n4cccc(C)c4nc3n(Cc3ccco3)c2=N)cc1OC,-17,8,.,.,.,
CSc1ncc(CN2CCN(CC=C(C)C)C(CCO)C2)cn1 (configuration not stated),2.7,5,.,1%,-4,
O=C(COC(=O)CCC(=O)c1cccs1)Nc1ncc(Cl)cc1Cl,-2.0,6,-17,-13%,0,
COc1ccc(C(c2nnnn2C(C)(C)C)N2CCN(c3nc4ccccc4s3)CC2)cc1 (configuration not stated),13,.,-25,39%,14,
N#CC1=C(N)Oc2cc(N)ccc2C1c1ccccc1Cl (configuration not stated),-322,0,.,.,.,
CCCCc1nnc2c(N(C)S(=O)(=O)c3ccccc3)nc3ccccc3n12,-3.7,-12,.,1%,.,
Cc1c(C(=O)N2CC3(CC(c4cccc(NC(=O)[C@H]5CCC(=O)N5)c4)=NO3)C[C@@H]2C(N)=O)cc([N+](=O)[O-])cc1[N+](=O)[O-] (some centres not stated),0.9,-4,.,-8%,.,
Cc1ccc(-c2nn(-c3ccccc3)cc2C(N)=O)o1,-2.9,-1,.,0%,7,
Cc1ccc(-n2nc3c(=O)n(C(C)C(=O)NCc4ccc(Cl)cc4)nc(C)c3c2C)cc1 (configuration not stated),5.6,8,.,.,.,
COc1ccc(OC)c(NC(=O)CSc2nnnn2-c2ccccc2F)c1,0.8,-9,-39,2%,0,
CC(C)CCc1noc(CN(C)CCC2CCOCC2)n1,-0.7,-6,.,-3%,.,
O=C(CSc1nnc(CNC(=O)c2ccco2)o1)Nc1cccc(Cl)c1,1.5,-2,.,.,.,
CC1=C[C@H](C)[C@H](c2c(F)cccc2Cl)CC1=O,-0.4,-1,.,.,.,
CC(C)N1C(=O)CCC1C(=O)O (configuration not stated),1.3,1,-22,2%,4,
Cn1c(CCNC(=O)C(C)(C)C)nc2ccccc21,0.5,-6,-46,6%,-3,Arbovirus inh repeat=2
O=C(c1cc2cc(Cl)ccc2o1)N1CCCC1,-4.4,0,.,.,.,
CCc1cccc(C)c1NC(=O)CCCn1c(=O)c2cccn2c2cccnc21,-2.0,0,.,.,.,
COc1cc(C(=O)N2CCN(C(=O)c3ccco3)CC2)c([N+](=O)[O-])cc1OC,-4.4,-9,.,0%,3,
COc1ccc(N2CCN(Cc3nnnn3C3CCCCC3)CC2)cc1,-1.5,-3,.,-7%,6,
CC(O)Cc1cn([C@@H](CCCCNC(=O)OC(C)(C)C)C(=O)N2CCN(C(=O)OC(C)(C)C)CC2)nn1 (some centres not stated),-5.8,1,.,-11%,3,
O=C(Nc1cccc2ccccc12)N1CCN(c2ccc(F)cc2)CC1,3.9,-2,-30,2%,3,Arbovirus inh repeat=-3
CN(C)CCCn1c(NCc2ccc3c(c2)OCO3)nc2ccccc21,-0.6,-2,-12,-4%,1,
Cc1ccc2cc(/C=N/NC(=O)c3ccc(F)cc3)c(Cl)nc2c1,-0.5,-2,.,6%,3,
Cc1nc(NC(=O)c2cccc(Cl)c2)sc1-c1csc(Nc2cccc(Cl)c2)n1,-3.3,95,-14,-3%,-14,
N#CCSc1nc2ccccc2c(=O)n1CCCC(=O)NCc1ccco1,-0.2,-4,.,2%,3,
COC(=O)C1=C(C)N(Cc2ccc(OC)c(OC)c2)C(=O)C1,0.8,-10,-51,0%,-2,
CCOc1ccc(CCNC(=O)Cc2ccc(NC3=NC4CS(=O)(=O)CC4S3)cc2)cc1OCC (configuration not stated),-1.9,4,.,.,.,
Cc1cc(C)n2nc(C(=O)N/N=C/C=C/c3ccccc3)nc2n1,-3.0,-2,.,-7%,.,
C/C(=N\NC(N)=S)c1cccnc1,-2.1,-9,.,-6%,.,
COc1cc(CNCCCN2CCOCC2)c(Br)cc1OC(C)C,-2.1,5,.,.,.,
COc1ccc(-n2nnnc2SCC(=O)Nc2nnn(C)n2)cc1,.,-2,-58,-6%,4,
CCOC(=O)c1ccc(COC(=O)CNC(=O)CNC(=O)c2ccc(OC)cc2)o1,-9.6,1,-28,0%,-1,
O=C(NC(=S)N1CCCCC1c1cccnc1)c1ccccc1 (configuration not stated),-0.6,-4,.,.,.,
CCOC(=O)C(=O)C1C(=O)Nc2ccccc21 (configuration not stated),-0.2,5,.,7%,.,
CC(=O)OCC1OC(c2ccccc2)C(OC(C)=O)C(OC(C)=O)C1OC(C)=O (configuration not stated),-0.4,-11,-61,-7%,12,
O=C1c2ccccc2C(Nc2ccc(F)cc2F)N1CCN1CCOCC1 (configuration not stated),2.2,0,-12,8%,0,Arbovirus inh repeat=4
O=[N+]([O-])c1cccc(C2Nc3cccc4cccc(c34)N2)c1,-0.7,2,-15,11%,-9,
CC(=O)OC1CC[C@@]2(C)C(CCC3C2CC(=O)[C@@]2(C)C3CC3CC(C)=CC(=O)C32)C1 (some centres not stated),5.8,-2,.,5%,.,
C=CCC(C(=O)OC)(C(=O)OC)c1ccccc1[N+](=O)[O-],1.1,-1,.,5%,4,
COCCn1cnc2c1c(=O)[nH]c(=O)n2Cc1ccccc1,-1.9,0,.,.,.,
Cc1ccc(NC(=O)CC2S/C(=N/N=C3/NC(=O)CS3)NC2=O)cc1 (configuration not stated),-2.3,14,.,-8%,-1,
O=C(CNC(=O)Cn1ccc2ccccc2c1=O)NCCCN1CCCCCC1,.,4,-36,-4%,0,Arbovirus inh repeat=-1
CC(=O)c1cccc(NC(=O)CC2S/C(=N/N=C/c3ccccc3)NC2=O)c1 (configuration not stated),0.2,5,.,6%,-4,
CCc1c(C)nc2c(-c3ccccc3)c(C)[nH]n2c1=O,-0.4,96,.,.,.,
CCOc1ccc(-n2nc3ccc(NC(=O)c4ccc5c(c4)OCCO5)cc3n2)cc1,0.1,0,-44,0%,-5,

# A portion of the library; rates above refer to the full screens.
